High-throughput results as filed in PubChem BioAssay.
Vif A3G: HIV-1 Vif–A3G interaction blockers – biochemical, TR-FRET, GST-Vif 1-94, biotin-A3G peptide, dose response retest, primary screen (AID 1117319); TR-FRET GST-Vif / biotin-A3G peptide binding; higher % means a stronger effect; test concentration not given here; strong numbers were not always called active; inhibition, %, or IC50 in µM where a hit was titrated; hit rate 0.57% among 260,000;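 active = above the screen mean plus three standard deviations and confirmed in dose response; inconclusive = results disagree or hit not tested in dose response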;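 also: Vif residues 1-94 fused to GST binding biotinylated APOBEC3G peptide 110-148; 0% = full assay without inhibitor and 100% = GST in place of GST-Vif; retest series ran down from 100 µM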
Beta2AR agonist: human beta-2 adrenergic receptor agonism by FAP; response, % (concentration not given with the values); Am2.2-beta2AR cells, FAP receptor internalization, flow cytometry; reference of the scale not given here; P07550; AID 504454; hit rate 0.43% among 340,000;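 active = response above a set limit, near 3 SD of response in nonfluorescent compounds, cut at about 42% in these data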;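 also: stock transfer was 100 nL into about 11 µL; a reference agonist was the positive control; negative values mostly stem from fluorescent compounds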
Target sequence (P07550 whole entry, looked up): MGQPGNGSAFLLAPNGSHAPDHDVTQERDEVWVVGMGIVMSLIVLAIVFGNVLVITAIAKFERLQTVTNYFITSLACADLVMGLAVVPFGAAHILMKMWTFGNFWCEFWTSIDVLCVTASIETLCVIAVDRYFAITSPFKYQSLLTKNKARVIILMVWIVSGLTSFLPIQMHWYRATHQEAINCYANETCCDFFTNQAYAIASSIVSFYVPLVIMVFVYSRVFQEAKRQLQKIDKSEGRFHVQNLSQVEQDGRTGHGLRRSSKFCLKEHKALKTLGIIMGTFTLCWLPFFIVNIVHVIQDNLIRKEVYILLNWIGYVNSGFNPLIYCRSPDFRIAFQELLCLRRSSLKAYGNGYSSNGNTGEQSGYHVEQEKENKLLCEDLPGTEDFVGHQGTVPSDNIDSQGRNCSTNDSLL
A1 inh: inhibitors of the anti-apoptotic protein A1, read as caspase activation. caspase activation, % (concentration not given with the values). MEF A1-2A-BIM cells, Caspase-Glo 3/7 luminescence, 3 h; percent of clofoctol response, vehicle zero. hit rate 0.066% among 330,000;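 active = over half of replicate activation scores above 10%, or exactly half above 10 with the replicate mean above 10; inconclusive = replicate mean below 10 yet half the replicates above 10; inactive = over half of replicates below 10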;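 also: wells of about 30 µL received 50 nL stock; many hits fall short of the cut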
HNF4A DNA FP: change in binding of human HNF4 alpha to DNA; hit rate 0.3% among 360,000; HNF4a-FITC DNA binding, fluorescence polarization, 1 h; P41235; activity change, % at 10 µM; AID 1224865; in the data active = activity change above about 30%, passing the limit was not always enough;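 also: controls were the assay level and a saturating level of protein; the project sought stronger binding though the title names inhibitors; some compounds called inactive have numbers as strong as hits; positive values seem to mean higher polarization but the record does not say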
Ecoli growth: inhibitors of Escherichia coli growth | OD600, 23 h; hits give low values | hit rate 0.21% among 330,000 | OD600 absorbance (test concentration not listed) | AID 1053175;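 active = OD600 absorbance below the run mean of sample wells minus 3.6 SD, in any replicate, cut at about 0.56 in these data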;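 also: stock transfer was 300 nL into about 60 µL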
UCH37 inh: inhibitors of human deubiquitinating enzyme UCH37 | inhibition, % (concentration not given with the values) | purified proteasome/UCH37, Ub-AMC cleavage fluorescence | Q9Y5K5 | hit rate 0.33% among 330,000 | AID 588478;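 active = mean of two replicates above 20%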;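 also: 0% = compound-free wells with enzyme and 100% = wells lacking proteasome; stock transfer was 100 nL into about 20 µL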
Target sequence (Q9Y5K5 whole entry, looked up): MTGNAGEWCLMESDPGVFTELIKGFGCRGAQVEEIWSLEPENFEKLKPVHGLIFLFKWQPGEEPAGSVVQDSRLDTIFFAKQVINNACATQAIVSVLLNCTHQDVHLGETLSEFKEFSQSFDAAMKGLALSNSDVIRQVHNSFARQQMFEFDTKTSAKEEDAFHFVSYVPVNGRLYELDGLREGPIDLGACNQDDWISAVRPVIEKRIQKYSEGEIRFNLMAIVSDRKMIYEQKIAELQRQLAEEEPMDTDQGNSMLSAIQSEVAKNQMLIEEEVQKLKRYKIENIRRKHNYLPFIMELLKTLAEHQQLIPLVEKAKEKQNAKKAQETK
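Assay system: Proteasome-bound UCH37. Buffer or medium: pH 7.4 Tris-HCl (50 mM) with ovalbumin, ATP-MgCl2, DTT. Incubation: 30 min preincubation with enzyme, 25 min cleavage at room temperature. Measured by: fluorescence, ex 355 nm, em 460 nm. Read-out basis: percent inhibition. Control set: wells without proteasome as full block, compound-free enzyme plus substrate as uninhibited.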
LANA-H2A inh: blocks KSHV LANA binding to histone H2A/H2B. Q9QR71. cell-free LANA-H2A/H2B peptide, fluorescence polarization. inhibition, % (test concentration not listed). hit rate 0.6% among 320,000. AID 2629; in the data active = inhibition mostly above about 10%, no sharp cut-off; inactive = mostly below about 6.7%;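 also: stock transfer was 7.5 nL into about 10 µL; 0% = median of vehicle wells and 100% = median of positive control wells; one replicate is shown; the record names a cut of 25% in any replicate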
* hit, by the source's call; ? = inconclusive; . = no result given; & = joins results of further samples.

SMILES	Vif A3G	Beta2AR agonist	A1 inh	HNF4A DNA FP	Ecoli growth	UCH37 inh	LANA-H2A inh
COc1ccc(-n2c(=O)c3c4c(sc3n3cnnc23)CC(C)CC4)cc1 (stereo not given)	-0.2%	-18.9	-0.6	-0.6	0.693	3.6	1.0
O=C(NC(=S)Nc1nc2ccc(F)cc2s1)c1ccco1	10.0%	12.5	-3.6	1.4	0.718	3.2	7.1
Cc1onc(-c2ccccc2Cl)c1C(=O)Nc1cccc2cccnc12	8.6%	-0.1	0.7	1.5	0.768	-2.6	-2.6
CCN(C(=S)Nc1ccc(OC(F)F)cc1)C1CCCCC1	1.1%	-5.4	0.3	3.8	0.635	0.7	0.5
CC(=O)c1ccc(OCC(O)CN2CCN(c3ccc(F)cc3)CC2)cc1 (stereo not given)	.	2.5	0.7	4.0	0.665	2.4	2.6
O=C(OCC(=O)N1CCCCC1)c1cc(=O)[nH]c2ccccc12	.	-2.3	-3.1	-0.2	0.726	-33.8	-2.9
O=c1oc2ccccc2c(NCc2cccc(F)c2)c1[N+](=O)[O-]	?	-12.0	0.3	4.1	0.632	5.2	-0.5
Cc1ccnc(NC(=O)c2cccc(NC(=O)CC3SC(N4CCCCC4)=NC3=O)c2)c1 (stereo not given)	-11.8%	0.0	-7.3	2.8	0.649	-1.2	5.6
O=C(Nc1ccccc1C(=O)NC(Cc1ccccc1)C(=O)O)c1ccccc1 (stereo not given)	10.4%	0.5	0.3	-1.0	0.681	4.3	0.0
NC(=O)CC(NC(=O)Cc1cccc2ccccc12)c1ccc(NCc2ccc(F)c(F)c2)c([N+](=O)[O-])c1 (stereo not given)	.	1.3	-0.5	0.4	0.694	-0.4	-1.7
CCOC(=O)c1cnc2ccc(OCC)cc2c1NCc1ccccc1	3.2%	-3.9	-0.7	-0.6	0.607	-104.8	1.1
O=C(Nc1nnc(SCC(=O)N2CCCCC2)s1)c1ccc(F)cc1F	.	0.3	0.1	0.8	.	.	-0.6
Cc1ccc(-c2ccc(=O)n(CC(=O)NCc3ccco3)n2)cc1	13.7%	-0.1	0.1	1.4	0.675	1.8	2.2
COc1cccc(NC(=O)Nc2nnc(Cc3ccccc3)s2)c1	.	-4.5	-0.5	-1.4	0.688	3.6	6.3
NC(=O)C1CCN(C(=O)/C=C/c2ccccc2[N+](=O)[O-])CC1	16.8%	0.1	0.6	0.9	0.673	0.7	-10.3
Nc1c(N(C(=O)Nc2ccc(Cl)c(Cl)c2)C2CCCC2)c(=O)[nH]c(=O)n1Cc1ccccc1	-2.5%	-2.1	0.0	-1.2	0.742	2.3	-1.1
CCOC(=O)CSc1cc(C)nc(NC(C)=O)n1	6.2%	0.8	-0.8	0.6	0.672	-1.5	6.7
CCN(CC(=O)Nc1ccccc1C(F)(F)F)C(=O)Cc1ccccc1	.	-2.0	1.9	0.5	0.689	2.3	-3.4
O=C(O)c1ccc(C=C(c2nc3ccccc3s2)c2nc3ccccc3s2)cc1	5.2%	11.5	0.4	3.1	0.73	4.3	-5.2
CC1CC(=O)Nc2ccccc2N1C(=O)Nc1ccccc1 (stereo not given)	1.6%	1.9	0.9	-0.9	0.66	-0.4	-4.8
COC(=O)CCCC(=O)N1CCCC(C(=O)c2ccc(OC)cc2C)C1 (stereo not given)	-2.8%	12.8	0.5	-0.4	0.695	4.9	2.1
CC(=O)Nc1ccccc1NC(=O)c1ccc(C)cc1C	-10.7%	3.7	0.4	6.5	0.673	0.9	-0.4
COc1ccc(-c2nn(-c3ccccc3)cc2/C=N/NC(=O)c2ccc(Br)o2)cc1	-9.1%&2.1%	60.9*	-0.9	-0.1	.	.	-4.7
O=C(Cc1cccc2ccccc12)Nc1c(F)cccc1F	-1.2%	-1.4	-0.2	-2.3	0.682	2.9	2.4
O=C(COC(=O)C12CC3CC(CC(O)(C3)C1)C2)Nc1ccc(Cl)c(S(=O)(=O)N2CCOCC2)c1	.	-1.1	0.6	1.5	0.717	1.2	-0.6
CC(=O)Oc1ccc2nc(-c3cccs3)oc(=O)c2c1	-4.0%	5.5	-3.4	7.5	0.695	-32.8	-0.6
O=C(Nc1ccc(C(F)(F)F)cc1)c1ccc2nc[nH]c2c1	7.9%	0.7	-0.2	5.9	0.616	2.5	-2.1
Cc1ccc(S(=O)(=O)N2c3ccccc3CC2C)cc1 (stereo not given)	.	16.7	0.6	-1.1	.	.	-3.6
COCCCn1c(=O)c2sccc2n2c(CCCC(=O)NCc3ccccc3OC)nnc12	-3.1%	-3.5	0.0	2.3	0.668	2.3	3.2
N#Cc1cnc(SCCc2ccccc2)nc1N	0.8%	4.5	-1.1	16.7	0.698	-6.6	1.2
COc1ccc(-c2c(-c3ccc(OCC(=O)NN)cc3O)n[nH]c2C(F)(F)F)cc1	-4.5%	2.8	0.1	0.9	0.678	1.9	-5.5
COc1cccc(SCC(=O)N2CCN(c3ccccc3)CC2)c1	.	-4.5	0.5	-1.5	0.688	4.6	5.9
O=C(Cc1cccc(NC(=O)C2CCN(C(=O)CCc3ccccc3)CC2)c1)Nc1cccc(C(=O)N2CCOCC2)c1	-3.7%	-2.8	.	1.7	0.7	5.4	.
CCC(C)(C)C(=O)Nc1ncc(S(=O)(=O)c2ccc([N+](=O)[O-])cc2)s1	-3.7%	1.0	0.5	19.8	0.707	1.6	-5.4
O=C1Nc2cc(C(=O)NCCCN3CCOCC3)ccc2S/C1=C/c1ccccc1F	-14.4%	-7.4	0.7	4.5	.	.	2.3
COc1cc(C2CC(c3c(C)cc(C)[nH]c3=O)=NN2c2ccccc2F)cc(OC)c1OC (stereo not given)	-4.1%	0.4	-1.4	10.3	0.664	-192.7	0.5
Cc1ccc(NC(=O)C2(N(CC(C)C)C(=O)Cn3nnnc3N)CCCCC2)cc1	3.9%	0.0	-0.4	-0.3	0.706	0.3	1.7
CCN(CC)S(=O)(=O)c1ccc(N2CCCC2)c(NC(=O)c2ccc(N3CCCC3=O)cc2)c1	1.4%	-10.2	-0.5	0.2	0.677	2.1	4.7
COCc1c(C(=O)N/N=C/c2c[nH]c3ccccc23)nnn1-c1nonc1N	.	10.1	0.3	2.0	.	.	9.3
O=C1CC(=C2c3ccccc3-c3ccccc32)C(=O)N1CCN1CCN(c2cccc(Cl)c2)CC1	25.9%	3.5	0.0	2.7	0.726	9.0	-2.5
COc1cc(/C=N\NC(=O)c2ccc(Cn3nc([N+](=O)[O-])c(Cl)c3C)o2)ccc1O	3.2%	-3.5	-1.0	2.7	.	.	4.2
CC1=NN(c2nc(C)cc(C)n2)C(=O)C1CCC(C)C (stereo not given)	4.6%	5.1	0.3	1.2	0.657	0.1	-3.2
Cc1cc(C)nc(N=Nc2c(O)n(Cc3ccc(Cl)cc3)c3ccccc23)n1	11.2%	3.7	-0.2	1.9	0.653	2.9	0.8
CCN(CC)C(=O)CSC1c2ccccc2C(=O)N1c1ccccc1 (stereo not given)	-1.4%	1.8	0.0	2.1	0.704	2.6	1.2
COC(=O)C(Cc1ccc(O)cc1)NC(=O)C12CC3CC(CC(C3)C1)C2 (stereo not given)	.	6.0	0.0	-0.8	0.635	5.0	-1.9
CCOc1ccc2oc(C(=O)Nc3cc(C)ccn3)c(C)c2c1	-11.8%	-9.2	-8.3	2.3	0.697	-9.1	-0.1
COc1ccc(/C=N/NC(=O)c2cc(-c3ccc4c(c3)OCO4)n[nH]2)cc1OC	6.5%	19.3	-0.1	-1.6	.	.	-5.8
S=c1[nH]nc(COc2ccccc2)n1/N=C/c1ccncc1	8.0%	2.2	-0.1	1.6	.	.	1.3
COc1ccccc1C(=O)NC(=O)CSc1nc(C)cs1	30.5%	7.8	0.7	-3.2	0.617	0.3	-0.1
CC(=O)C1=C(O)C(=O)N(Cc2cccnc2)C1c1ccc(Cl)cc1Cl (stereo not given)	-0.6%	4.7	0.0	-0.6	0.668	6.6	2.8
COc1cccc(/C=N/n2cnc3c(cnn3-c3ccccc3)c2=O)c1	26.7%	-0.4	1.0	-2.0	.	.	0.3
COc1ccc(S(=O)(=O)Nc2ccc3c(c2)OCO3)cc1	2.1%	-6.6	0.0	-3.1	0.677	1.7	-3.3
CC(/C=C/c1ccc2c(c1)OCO2)=N/NC(=O)CNc1ccc(C)cc1	.	5.0	?	-1.3	.	.	4.0
O=C(c1ccccc1)n1ccn(-c2ccccc2)c1=S	-0.8%	-3.1	-0.3	22.8	0.678	-11.5	-0.9
COc1ccc(CC(=O)N2CCC(n3nccc3NC(=O)C3CCOC3)CC2)cc1 (stereo not given)	.	2.0	-0.6	-0.2	0.604	-2.8	-1.9
O=C(Cc1noc2ccccc12)NNC(=S)Nc1ccc(Cl)cc1	1.6%	-12.0	0.5	-5.2	.	.	-2.9
COc1ccc(C2Nc3ccccc3C(=O)N2Cc2ccco2)cc1COc1ccc([N+](=O)[O-])cc1 (stereo not given)	-0.4%&-5.3%	9.2	0.0	-1.0	0.82	-0.1	0.1
CCOC(=O)c1c(/N=C/N(C)C)sc(/C=N/Nc2ccccc2)c1-c1ccccc1Cl	11.3%	-5.4	0.2	17.0	.	.	-2.6
COc1ccc(CNC(=S)NC(C)CCc2ccccc2)cc1 (stereo not given)	0.2%	-8.4	-0.2	-0.9	0.721	8.2	0.4
Cc1ccc(Oc2coc3cc(OC(=O)c4cccs4)ccc3c2=O)cc1	0.8%	8.3	0.1	2.6	0.66	-10.5	1.0

Looked up one by one from above:
SMILES	Vif A3G	Beta2AR agonist	A1 inh	HNF4A DNA FP	Ecoli growth	UCH37 inh	LANA-H2A inh
COc1ccccc1C(=O)NC(=O)CSc1nc(C)cs1	30.5%	7.8	0.7	-3.2	0.617	0.3	-0.1
CC(/C=C/c1ccc2c(c1)OCO2)=N/NC(=O)CNc1ccc(C)cc1	.	5.0	?	-1.3	.	.	4.0

More records follow.
SMILES	Vif A3G	Beta2AR agonist	A1 inh	HNF4A DNA FP	Ecoli growth	UCH37 inh	LANA-H2A inh
O=C(CSc1nnc(-c2ccc(Cl)cc2)o1)NNC(=O)c1ccncc1	.	1.9	-0.2	1.4	.	.	3.6
CCc1cc(CNC(=O)CCc2nnc(CCCc3ccccc3)o2)on1	20.9%	-6.8	0.7	-2.1	0.682	2.3	-4.0
CCn1c(=O)n(CC)c2cc(S(=O)(=O)N3CCOCC3)ccc21	0.3%	-7.0	-0.7	3.1	0.645	3.8	2.7
CC1CN(S(=O)(=O)c2cccc(C(=O)N=c3sccn3C)c2)CC(C)O1 (stereo not given)	6.7%	-8.1	-1.4	-1.6	0.598	4.9	1.6
CC(=O)Nc1ccc(/C=N/NS(=O)(=O)c2cc(C)ccc2C)cc1	4.5%	-8.9	2.0	1.4	.	.	-1.8
O=C(Nn1cc(C(=O)Nc2ccccc2F)c2ccccc2c1=O)c1cnccn1	0.6%	-0.2	-0.2	-1.2	0.711	4.8	-11.7
CCOc1cc(NC(=S)NCCCN2CCOCC2)c(OCC)cc1NC(=O)c1cccs1	16.5%	-11.1	-0.3	1.3	0.68	-11.8	-1.1
CCCCCCn1c(C(C)NC(=O)c2ccco2)nc2ccccc21 (stereo not given)	-0.5%	1.8	-0.1	1.8	0.789	-2.4	-1.7
Cc1c(O)ccc2c(-c3ccccc3)cc(=O)oc12	-8.6%	14.0	0.7	5.0	0.678	-25.4	5.9
Cc1cccnc1NC(=O)C1CCN(S(=O)(=O)c2ccc3c(c2)CCC(=O)N3)CC1	-3.4%	12.3	0.3	2.6	0.69	1.0	-3.1
COC(=O)c1cc(S(=O)(=O)N2CCC(C)CC2)ccc1F	?	4.0	0.0	1.9	0.728	1.6	1.1
CC(C)N=C(NS(=O)(=O)NC(=O)c1ccccc1)c1ccccc1	.	-2.4	-0.1	1.4	.	.	0.7
Cc1cc(NC(=O)c2cccc(S(=O)(=O)N3CCCCCC3)c2)no1	3.9%	-18.8	0.3	2.4	0.705	2.5	3.6
